Assay outcomes: PubChem, National Center for Advancing Translational Sciences (NCATS)
D2 PAM: positive allosteric modulators of human D2 dopamine receptor; P14416; potentiation, % (no concentration beside the values); 360,000 compounds, 0.23% hits; AID 624464; DiscoveRx D2 beta-arrestin cells, luminescence, 90 min; 100% = 57 uM dopamine signal; active = potentiation of 50% or more; inconclusive = 30% to 50%; inactive = 30% or less;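 note: compound concentration not given in the record; tested on top of an EC20 dose of dopamine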
Target sequence (P14416 whole entry, looked up): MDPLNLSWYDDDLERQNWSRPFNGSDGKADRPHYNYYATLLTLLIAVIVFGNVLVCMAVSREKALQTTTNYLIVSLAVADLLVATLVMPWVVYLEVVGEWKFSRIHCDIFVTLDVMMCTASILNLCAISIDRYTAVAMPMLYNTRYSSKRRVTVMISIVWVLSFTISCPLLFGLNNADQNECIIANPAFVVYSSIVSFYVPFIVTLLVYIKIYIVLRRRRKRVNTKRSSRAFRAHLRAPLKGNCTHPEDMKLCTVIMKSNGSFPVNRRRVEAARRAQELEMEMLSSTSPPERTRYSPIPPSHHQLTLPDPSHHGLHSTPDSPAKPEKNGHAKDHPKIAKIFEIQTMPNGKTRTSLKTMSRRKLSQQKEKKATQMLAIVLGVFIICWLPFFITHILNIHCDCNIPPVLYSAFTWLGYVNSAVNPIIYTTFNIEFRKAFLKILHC
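PathHunter D2 cells, attached overnight at 37 deg C, received compound in DMSO plus dopamine at EC20 (50 nM final) for 90 min at 37 deg C. Beta-arrestin recruitment was read as luminescence after 1 h with detection reagent at ambient temperature.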
ClpP mod: qHTS Assay for Activators of ClpP | Potency, µM (series often up to 57.5 µM), without a hit: at the highest dose activity change, negative = active | 340,000 compounds, 1.9% hits | AID 651965, 2013 | purified B. subtilis ClpP, FRET peptide cleavage, 20 min | ATP-dependent Clp protease proteolytic subunit (Bacillus subtilis (strain 168)), P80244; active = well fitted falling curve with a large enough effect; inconclusive = small, poorly fitted or top-dose-only effect; inactive = no such curve, though single readings can be large or run the other way; note: potency is the fitted concentration of half-maximal effect; the source files actives as falling curves though it sought activators and does not explain the sign; nearly all actives have a fitted effect of over 65% in size; many hits overshoot -100%
Target sequence (P80244 whole entry, looked up): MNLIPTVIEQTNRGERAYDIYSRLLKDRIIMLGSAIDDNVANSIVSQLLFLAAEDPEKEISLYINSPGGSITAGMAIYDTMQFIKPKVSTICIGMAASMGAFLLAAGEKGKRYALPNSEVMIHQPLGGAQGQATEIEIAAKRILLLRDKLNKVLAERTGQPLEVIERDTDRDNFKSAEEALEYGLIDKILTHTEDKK
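ClpP 10 microg/mL final, pH 8 Tris/KCl buffer with BSA, glycerol, Tween-20; compound pinned in; FRET-FV substrate; RT 20 min; Ex320/Em430; ΔFRET vs ADEP 5.8 microM, DMSO, no enzyme.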
Menin MLL FP FL: inhibitors of human menin-MLL interaction, wild-type MLL peptide. AID 1766. 290,000 tested, under 10 active. Fluorescence polarization, fluorescein-MLL peptide displacement from menin. FP activity change, % at 61.4 µM; inconclusive = falling polarisation curve, or a change in total fluorescence; inactive = total fluorescence flat and polarisation flat or rising; no compound was filed as active; the % refers to the polarisation; negative = inhibition;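 note: % of control where 0% means no effect; inhibitors lower the polarisation; unlabelled MLL peptide was the positive control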
gsp agonist: activates gsp, the McCune-Albright syndrome mutation; AID 624287; Potency, µM (highest dose often 76.9 µM), for the others: top-dose activation (cAMP increase), actives largely listed as activators; 340,000 compounds, 0.13% hits; gsp mutant cells, cAMP HTRF, 30 min; control for the full effect not named in the record; active = well fitted activation curve with a large enough effect; inconclusive = small, poorly fitted or top-dose-only effect, or another doubt; inactive = no such curve, though single readings can be large or run the other way; cell line not stated here;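 note: phosphodiesterase inhibitor Ro 20-1724 added with compounds to block cAMP breakdown; potency is the fitted concentration of half-maximal effect; nearly all actives have a fitted effect of over 60% in size; about a fifth of the inactives were tested at one dose only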
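Cells stably selected in G418 were plated at 2000/well, grown 16-24 hr, then given compounds in DMSO with the PDE inhibitor […] (300 uM solution added) for 30 min at 37C; cAMP was read by HTRF.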
gsp antagonist: antagonists of gsp mutant (McCune-Albright syndrome). gsp-mutant cells, cAMP HTRF, 30 min; control for the full effect not named in the record. Potency, µM (top dose mostly 76.9 µM), without a hit: at the top dose activity change, negative = inhibition, hits mostly inhibitors. 340,000 compounds, 0.4% hits. AID 624288; active = falling curve of any shape with a large fitted effect; inconclusive = falling curve, mostly with a smaller effect; inactive = flat or rising curve; cell line not stated here;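 note: intracellular cAMP measured with PDE inhibitor Ro 20-1724 present during compound exposure; potency is the fitted concentration of half-maximal effect; % is set by controls: 0 for no effect and ±100 for the full control effect; nearly all actives have a fitted effect of over 65% in size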
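G418-selected cells were plated in DMEM/10% FBS for 16-24 h at 37C, then treated with compounds plus the PDE inhibitor […] (300 uM solution added) for 30 min at 37C. Intracellular cAMP was measured by HTRF after 30 min lysis at room temperature.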
Sfp inh: blocks B. subtilis Sfp PPTase activity; Q9F4F7; Potency, µM, for the others: max response, negative = inhibition, most hits filed as inhibitors; Biochemical Sfp PPTase activity, qHTS; 310,000 compounds, 3.5% hits; active = well fitted inhibition curve with a large enough effect; inconclusive = small, poorly fitted or top-dose-only effect, or another doubt; inactive = no such curve, though single readings can be large or run the other way;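 note: the enzyme is Sfp with the accession as filed and its product quenches rhodamine fluorescence; potency is the fitted concentration of half-maximal effect; 0% = enzyme reaction without inhibitor and -100% = no enzyme wells; top concentration of the series not given in the record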
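Sfp 15 nM + cpd, 15 min RT; start w/ rhodamine-CoA 5 uM, BHQ-2-YbbR 12.5 uM (final); 50 mM Hepes pH 7.6, 10 mM MgCl2, 0.01% NP-40, 0.01% BSA; read 525/598 nm at 0 and 30 min.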
TRPV1 potentiator: enhances activation of the human vanilloid receptor TRPV1; potentiation, % at 8.33 µM; TRPV1-expressing cells, Fluo-8 calcium influx, capsaicin EC20 potentiation; host cell line not named in the record; control for the full effect not named in the record; 320,000 compounds, 0.02% hits; Q8NER1; active means potentiation above 80%; inconclusive means 30% to 80%; inactive means below 30%; note: 0% is about no effect
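Fluo-8 calcium influx in TRPV1-expressing cells, kinetic read (ex 480/em 520 nm). Compound added and read 3 min for agonist activity, followed by capsaicin at EC20 final and 2 min further read for enhancement.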
Starred values were filed as active, the others as inactive; ? = inconclusive; . = no result given; & = joins results of further samples; [ ] = dose if it differs, or a comment.

smiles	D2 PAM	ClpP mod	Menin MLL FP FL	gsp agonist	gsp antagonist	Sfp inh	TRPV1 potentiator
CC(C)C(C(=O)OCC(=O)c1ccc2c(c1)NC(=O)CO2)N1C(=O)c2ccccc2C1=O (stereo unspecified)	-6	1.2%	1.4	12%	-18%	7%	-20
CCN(CC)C(=O)c1cc(S(=O)(=O)N2CCCCC2)c[nH]1	-5	0.9%	-0.2	?	4%	5%	8
O=C(CNCC1CCCCC1)Nc1ccc(N2CCCCC2)cc1	.	.	3.2	.	.	?	6
C=CCOc1ccc2ccccc2c1CNc1ncn[nH]1	-3	-9.6%	1.7	-55%[inhibitor]	-1%	16%	-6
CC(=O)Nc1n[nH]c(=S)s1	-18	-3.3%	.	13%	10%	.	.
O=C(CNC(=O)c1ccc(Oc2ccccc2)cc1)OC1CCCCC1=O (stereo unspecified)	6	-2.3%	-1.0	-61%	-15%	-1%	-12
CN(C)CCCOC(=O)CCc1ccccc1	-11	-1.4%	-0.2	11%	8%	14%	13
CN(Cc1ccccc1)C(=O)C1CCN(S(=O)(=O)c2ccc(-n3cnnn3)cc2)CC1	0	.	-1.4	4%[15.4 µM]	-3%	6%	2
CC(=O)Nc1cccc(NC(=O)c2cc(-c3cccnc3)nc3ccc(Br)cc23)c1	-1	-1.3%	8.2	?	1%	-18%	13
CN1CCN(C(=O)c2ccc(F)c(F)c2)CC1	-16	0.2%	0.1	-36%[inhibitor]	10%	20%	?
O=C(O)/C=C/C(=O)NNc1ncnc2ccccc12	-14	-2.3%	0.9	29%	-4%	56µM*	-12
CCCCNC(=O)c1cn(C)c2ccc(S(=O)(=O)N3CCCC3)cc2c1=O	-1	1.2%&59%	.	-6%	-4%	11%	-10
CCCCN(C)C(=O)c1nc2ccccn2c1CN(C)Cc1csc(C)n1	-4	.	-2.1	-7%[15.4 µM]	-11%	14%	4
Cc1cc(C(F)(F)F)c(C#N)c(Sc2ccccc2)n1	-4	-0.7%	1.1	1%	-4%	9%	?
CCCN(CC(=O)Nc1ccccc1C)C(=O)C1CC(=O)N(c2ccc(C)cc2)C1 (stereo unspecified)	-19	.	.	36%[15.4 µM]	-2%	.	3
COc1ccc(/C=N/NC2=NCCCCC2)c(OC)c1	-16	-2.2%	-6.0	4%[15.4 µM]	10%	7%	1
COc1ccccc1/C(C)=N/NC(=S)NCc1ccccc1	-7	.	1.8	3%[15.4 µM]	-14%	16%	-3
CC(c1ccco1)N(C(=O)c1ccc(F)cc1)c1ccccn1 (stereo unspecified)	-14	-2.1%	8.3	0%[15.4 µM]	7%	9%	1
O=C(NS(=O)(=O)Oc1ccccc1F)OC[C@@H]1CCCN2CCCCC12 (stereo partly specified)	1	.	4.6	7%	6%	11%	-1
COc1ccc(N2CCN(C(=O)c3c(Cl)cnn3C)CC2)cc1	-11	-2.2%	.	?	6%	-9%	8
Cc1cc(NC(=O)CSc2nnc3ccccn23)no1	-6	-4.6%	1.0	4%[15.4 µM]	3%	19%	4
O=C(CN1C(=O)c2ccccc2S1(=O)=O)c1ccc(OC(F)F)cc1	7	-4.0%	-1.2	11%	-6%	-11%	-14
O=C(COc1ccccc1)N1CCc2ccccc21	-5	.	3.8	-10%[15.4 µM]	-5%	10%	-19
COc1ccc(OCCn2cnc(Cl)c2Cl)cc1	-2	.	-0.1	24%	7%	10%	-9
COc1cc(C(c2sc3nc(C)nn3c2O)N2CCOCC2)cc(OC)c1OC (stereo unspecified)	-5	1.5%	4.1	?	3%	13%	5
O=C(N/N=C\c1cn[nH]c1-c1ccccc1)c1ccc([N+](=O)[O-])cc1	-16	0.2%	2.5	-20%	1%	-15%	13
CC(C)NC(NC(=O)/C=C/c1ccccc1)C(Cl)(Cl)Cl (stereo unspecified)	-4	-3.5%	4.2	11%[15.4 µM]	4%	18%	-3
COCc1nn2c(N)c(-c3ccccc3)cnc2c1-c1ccccc1	-3	.	-0.1	-36%	6%	11%	-6
CCOc1ccc(-c2nc3n(c(=O)c2C#N)CCCS3)cc1	-3	?	7.7	1%	-15%	11%	-1
Cc1onc(-c2ccccc2)c1C(=O)N/N=C/c1c[nH]c2ccccc12	-2	.	-0.4	-38%[15.4 µM]	?	-9%	6
COCCN(C(=O)CSc1nnc(Nc2ccccc2F)s1)c1c(N)n(Cc2ccccc2)c(=O)[nH]c1=O	-15	-4.7%	1.9	30%	-2%	25%	-1
CCCCCOP(=O)(c1ccccc1)c1ccccc1	4	-3.6%	-3.7	3%[15.4 µM]	-9%	5%	-14
CCc1ccc(C(=O)Nc2nnn(CC)n2)cc1	-4	1.0%	3.6	3%	3%	9%	-23
CCOC(=O)c1csc(NC(=O)CSc2nnnn2-c2cccc(OC)c2)n1	-16	16%	-2.3	?	-3%	-13%	15
CCOC(=O)N1CCN(c2ccc(C(C)=O)cc2F)CC1	-2	-0.1%	-0.1	-52%[inhibitor]	-7%	-12%	-12
CCNC(=O)NC(=O)C(C)OC(=O)c1oc2ccc(OCC)cc2c1C (stereo unspecified)	-11	?	8.9	2%	12%	20%	-11
COCCN(CCOC)c1nc(-c2ccc(Cl)cc2)nc2ccccc12	-3	-6.4%	1.0	3%	?	2%	-6
CCOC(=O)C1CCN(CCC(=O)Nc2cc(C)ccc2C)CC1	-5	.	-0.5	?	-1%	5%	-26
Cc1ccc(CNC(=O)c2cc(-c3ccccc3)n(Cc3cc(C)no3)n2)cc1	-4	0.7%	.	?	-24%	.	15
COC(=O)C(CO)Nc1ncnc2onc(-c3ccc(F)cc3)c12 (stereo unspecified)	1	0.3%	-4.7	-4%[15.4 µM]	-1%	21%	-9
CCOC(=O)N1CCC(NC(=O)C(C)n2c3ccccc3c3cnn(C)c(=O)c32)CC1 (stereo unspecified)	-16	28µM*	-0.2	-35%[inhibitor]	-7%	15%	13
COc1nn(-c2nc(-c3ccccc3)cc(C(F)(F)F)n2)cc1[N+](=O)[O-]	-7	22µM*	3.8	0%[15.4 µM]	-6%	9%	-2
O=C(COC(=O)Cc1cccs1)NCc1ccc(F)cc1	10	0.9%	.	10%	5%	12%	-22
COC(=O)C1=C(C)NC(=S)NC1c1ccc(-c2cc(Cl)ccc2Cl)o1 (stereo unspecified)	-3	.	9.0	11%[15.4 µM]	-27%	40µM*	7
CC[C@@H](C)[C@H](CN[C@H](CNC)[C@@H](C)O)NCCc1ccc(OC)cc1	-13	-1.3%	0.1	.	5%	20%	19
COc1ccc(CN(C)C(=O)c2ccccc2OCc2c(C)noc2C)cc1OC	-2	-0.2%	.	-20%	-12%	.	5
CCc1n[nH]c(=S)n1/N=C/c1ccc(N(C)c2ccccc2)cc1	-44	0.8%	-1.4	-6%[15.4 µM]	?	-23%	-5
C=CCOC(=O)C1=C(C)NC(=S)C(C#N)(CC=C)C1c1ccccc1Cl (stereo unspecified)	-5	0.6%	2.8	5%	3%	14%	?
O=C(CN1CCN(c2ccc(O)cc2)CC1)Nc1ccc(SC(F)F)cc1	-5	-0.5%	1.0	?	13%	35µM*	-4
CCOC(=O)Cc1csc(NC(=O)c2c(C)noc2C)n1	-6	-3.1%	.	?	-1%	.	.
O=C(NCCN=C1NS(=O)(=O)c2ccccc21)c1ccc2nccnc2c1	3	-6.9%	-2.3	25%	10%	16%	4
Cn1c(NC(=O)/C=C/c2ccc(Cl)c(Cl)c2)cc(=O)n(C)c1=O	-18	-4.6%	.	7%	?	-4%	2
CC(C)(C)c1ccc(O)c(N=Cc2cc(Br)ccc2O)c1	0	-0.5%	3.8	?	-6%	50µM*	-11
O=[N+]([O-])c1ccc(N2N=C(c3ccccc3)CC2c2ccccc2O)cc1 (stereo unspecified)	.	.	?	.	.	?	-13
CSc1nc2cc(S(=O)(=O)N3CCCCC3)ccc2s1	-3	.	-2.2	17%	-10%	11%	-24
CCCC(c1nnnn1CCc1ccccc1)N1CCN(C(=O)c2ccco2)CC1 (stereo unspecified)	-10	1.4%	1.5	?	-11%	3%	2
CC1(C)CC(=O)C(CC2=C(O)CC(C)(C)CC2=O)=C(O)C1	0	0.1%	2.7	-47%[inhibitor]	-10%	?	10
Cc1cc(OCC(=O)Nc2ccc(S(=O)(=O)NC3=NCCCCC3)cc2)c(C(C)C)cc1Cl	-13	-1.4%	4.5	0%[15.4 µM]	-15%	-4%	-2
COc1cccc(OCC(=O)NNC(=O)C(=O)Nc2ccc(OC)cc2OC)c1	-7	1.1%	1.2	?	-17%	18%	4
O=C(CSc1nccc(=O)[nH]1)N1CCc2ccccc2C1	-4	-7.2%	3.4	-2%	-10%	-5%	10

Continuation:
smiles	D2 PAM	ClpP mod	Menin MLL FP FL	gsp agonist	gsp antagonist	Sfp inh	TRPV1 potentiator
Cc1[nH]nc(N)c1-c1ccccc1	-53	-2.5%	0.3	-57%[inhibitor]	7%	5%	2
CCOC(=O)C(C)Oc1nc(Oc2ccccc2)nc(N(C)C)n1 (stereo unspecified)	19	1.0%	2.3	18%	-3%	9%	12
COC(CNC(=O)CCc1c(C)nc2c(c(C)nn2-c2ccc(C)cc2)c1C)OC	2	4.2%	-5.3	?	-21%	7%	-21
CN(C)N1C(N)=C(C#N)C(c2cccc(Cl)c2)C2=C1CCCC2=O (stereo unspecified)	8	0.9%	-9.9	?	-12%	-7%	-20
Cc1ccc(C2Oc3ccccc3C3=C2C(c2cccs2)n2ncnc2N3)cc1 (stereo unspecified)	6	-8.1%	11	13%	-15%	-15%	-16
c1cncc(-c2nc(NCCCn3ccnc3)c3ccccc3n2)c1	-21	.	-2.8	5%[15.4 µM]	.	20%	0

No enrichment for hits, and some 5.1% of all compounds hit somewhere here.
